Screening results from PubChem.
HNF4A DNA FP: change in binding of human HNF4A to DNA, primary screen, biochemical, fluorescence polarization, FITC-DNA; Hepatocyte nuclear factor 4-alpha (Homo sapiens), P41235; activity change, % at 10 µM; AID 1224865, 2016; 360,000 tested, 0.3% active; 1 h; in the data active means activity change above about 30%, passing the limit was not always enough;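 further: controls were the assay level and a saturating level of protein; the project sought stronger binding though the title names inhibitors; some compounds called inactive have numbers as strong as hits; positive values seem to mean higher polarization but the record does not say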
Vif TR-FRET: inhibitors of Vif binding to APOBEC3G peptide, primary screen, biochemical, TR-FRET, GST-Vif 1-94, biotin-A3G peptide, dose response retest (AID 1117319) | 260,000 tested, 0.57% active | TR-FRET GST-Vif / biotin-A3G peptide binding; higher % means a stronger effect; test concentration not given here; strong numbers were not always called active | Virion infectivity factor (Human immunodeficiency virus type 1 group M subtype B (isolate … | one-dose inhibition, %; IC50 in µM for titrated hits;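 active means above the screen mean plus three standard deviations and confirmed in dose response; inconclusive means results disagree or hit not tested in dose response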;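 further: Vif residues 1-94 fused to GST binding biotinylated APOBEC3G peptide 110-148; 0% = full assay without inhibitor and 100% = GST in place of GST-Vif; retest series ran down from 100 µM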
A1 inh: caspase 3/7 activation in MEF A1-2A-BIM cells, primary screen, A1 inhibitor project, cell-based, luminescence, HTS. Caspase-Glo 3/7 luminescence, 3 h; percent of clofoctol response, vehicle zero. caspase activation, % (test concentration not listed). 330,000 tested, 0.066% active. AID 2462, 2010;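 active means over half of replicate activation scores above 10%, or exactly half above 10 with the replicate mean above 10; inconclusive means replicate mean below 10 yet half the replicates above 10; inactive means over half of replicates below 10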;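 further: wells of about 30 µL received 50 nL stock; many hits fall short of the cut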
UCH37 DUB inh: inhibitors of human UCH37 deubiquitinase, primary screen, biochemical, Ub-AMC cleavage, fluorescence. inhibition, % (test concentration not listed). 330,000 tested, 0.33% active. Ubiquitin carboxyl-terminal hydrolase isozyme L5 (Homo sapiens), Q9Y5K5. purified proteasome/UCH37;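 active means mean of two replicates above 20%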;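 further: 0% = compound-free wells with enzyme and 100% = wells lacking proteasome; stock transfer was 100 nL into about 20 µL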
Target sequence (Q9Y5K5 whole entry, looked up): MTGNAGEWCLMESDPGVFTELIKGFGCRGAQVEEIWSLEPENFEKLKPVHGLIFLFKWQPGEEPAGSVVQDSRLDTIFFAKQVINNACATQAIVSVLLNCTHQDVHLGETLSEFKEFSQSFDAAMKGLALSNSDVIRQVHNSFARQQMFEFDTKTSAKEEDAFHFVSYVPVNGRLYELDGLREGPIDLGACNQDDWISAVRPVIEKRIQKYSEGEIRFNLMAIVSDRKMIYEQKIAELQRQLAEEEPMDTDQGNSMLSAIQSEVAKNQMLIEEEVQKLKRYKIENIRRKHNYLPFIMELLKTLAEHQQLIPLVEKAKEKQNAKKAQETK
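Material: Human UCH37 enzyme supplied as purified proteasome complex | Schedule: 30 min preincubation with enzyme, 25 min cleavage at room temperature | Detection: AMC fluorescence 355/460 nm | Measure: % inhibition of Ub-AMC cleavage fluorescence | Controls: Wells without proteasome as full block, compound-free enzyme plus substrate as uninhibited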
LANA-H2B inh: blockers of LANA interaction with H2A/H2B – biochemical, FP readout, HTS, primary screen; 320,000 tested, 0.6% active; inhibition, % (test concentration not listed); AID 2629, 2010; Protein LANA1 (Human herpesvirus 8 type P (isolate GK18)), Q9QR71; cell-free LANA-H2A/H2B peptide, fluorescence polarization; in the data active means inhibition mostly above about 10%, no sharp cut-off; inactive means mostly below about 6.7%;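 further: stock transfer was 7.5 nL into about 10 µL; 0% = median of vehicle wells and 100% = median of positive control wells; one replicate is shown; the record names a cut of 25% in any replicate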
Beta2AR agonist: beta2AR agonists driving receptor internalization, primary screen, cell-based, FAP fluorogen, flow cytometry; 340,000 tested, 0.43% active; Beta-2 adrenergic receptor (Homo sapiens), P07550; AID 504454, 2011; response, % (concentration not given with the values); Am2.2-beta2AR cells; reference of the scale not given here;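 active means response above a set limit, near 3 SD of response in nonfluorescent compounds, cut at about 42% in these data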;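 further: stock transfer was 100 nL into about 11 µL; a reference agonist was the positive control; negative values mostly stem from fluorescent compounds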
Target sequence (P07550 whole entry, looked up): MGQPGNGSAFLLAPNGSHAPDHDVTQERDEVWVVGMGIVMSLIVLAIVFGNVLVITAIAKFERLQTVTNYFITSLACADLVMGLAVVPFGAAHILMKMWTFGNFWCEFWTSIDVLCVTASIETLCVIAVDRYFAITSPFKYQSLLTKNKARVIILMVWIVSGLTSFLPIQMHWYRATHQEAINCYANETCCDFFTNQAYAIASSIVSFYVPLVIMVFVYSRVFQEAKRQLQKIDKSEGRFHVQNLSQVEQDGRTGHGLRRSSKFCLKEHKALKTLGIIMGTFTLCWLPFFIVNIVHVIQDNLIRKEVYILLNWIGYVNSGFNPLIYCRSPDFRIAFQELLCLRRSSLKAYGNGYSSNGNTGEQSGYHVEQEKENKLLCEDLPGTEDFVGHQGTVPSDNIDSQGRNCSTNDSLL
E coli growth: E. coli growth inhibition, primary screen, OD600; Escherichia coli growth, 23 h; active compounds read low; OD600 absorbance (concentration not given with the values); 330,000 tested, 0.21% active;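 active means OD600 absorbance below the run mean of sample wells minus 3.6 SD, in any replicate, cut at about 0.56 in these data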;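 further: stock transfer was 300 nL into about 60 µL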
The depositor's hits bear a star; ? = inconclusive; / = not tested or not shown.

SMILES	HNF4A DNA FP	Vif TR-FRET	A1 inh	UCH37 DUB inh	LANA-H2B inh	Beta2AR agonist	E coli growth
COc1ccc(Cl)cc1NC(=O)Cn1nnc(C(=O)NCc2ccc3c(c2)OCO3)c1N	-1.6	-5%	0.8	3.5	0.4	4	0.7
CC(=O)c1cccc(S(=O)(=O)NCC(C)(C)N2CCOCC2)c1	-2.1	-3%	1.3	-0.1	4.5	-12	0.69
O=C(Cc1ccccc1)NCCc1ccc(Cl)cc1Cl	4.2	-6%	-0.1	1.7	1.5	3	0.69
Cc1cc(CNC(=O)c2cc(COc3ccc(F)c(F)c3)on2)nn1C	4.3	/	-4.3	0.7	0.4	-9	0.65
N#Cc1cccc(NC(=O)COC(=O)c2ccccc2Sc2ccccc2C#N)c1	2.0	/	0.0	4.9	4.9	5	0.72
O=C(CN(C(=O)CCC(=O)Nc1nccs1)c1ccc(F)cc1)NCCc1ccccc1	2.3	4%	0.2	2.1	-3.3	-3	0.7
CCOC(=O)c1cc2c(=O)n3ccccc3nc2n(Cc2ccco2)c1=NC(=O)c1cccc(OC)c1	-16	/	-0.4	-58	2.1	21	0.7
O=C(Cn1c(=O)n(CC2CCCO2)c(=O)c2ccccc21)c1ccccc1 (stereo not drawn)	0.4	7%	-0.5	2.1	8.5	-7	0.7
CNC(=O)CSc1nnc(-c2ccco2)n1-c1cccc(OC)c1	-0.4	/	0.4	2.1	1.5	3	0.67
CN(C)S(=O)(=O)c1cccc(NC(=O)CCCSc2ccccc2)c1	1.4	-2%	0.7	2.6	-0.7	-9	0.66
COc1ccc(NC(=O)C2CCCN2S(=O)(=O)c2cccc3cccnc23)c(OC)c1 (stereo not drawn)	8.7	>100µM*	0.2	3.8	3.4	3	0.66
COc1ccc(Cl)cc1N1CC(C(=O)Nc2nccs2)CC1=O (stereo not drawn)	-1.5	-1%	0.5	-1.2	2.0	-5	0.68
Cc1cc(C)c2c(CN3CCN(Cc4ccc5c(c4)OCO5)CC3)cc(=O)oc2c1	0.6	-3%	-0.1	1.7	6.2	-18	0.74
CN(Cc1cccs1)C(=O)CCc1c[nH]c2ccccc12	2.2	5%	-0.2	1.6	0.1	-1	0.69
CCCCN(C(=O)CSc1nncn1-c1ccccc1OC)c1c(N)n(Cc2ccccc2)c(=O)[nH]c1=O	-2.4	/	-0.3	4.0	0.3	4	0.68
CC(C)Sc1sc(C(=O)O)c(-c2ccc(Cl)cc2)c1C#N	1.7	/	0.3	5.3	4.6	-6	0.66
CCOC(=O)c1cccnc1SCC(=O)NC(C)CC (stereo not drawn)	-2.6	8%	0.2	2.0	4.0	31	0.66
COc1ccccc1C(=O)NCCC(=O)N(C)CC(=O)Nc1c(Cl)cccc1Cl	-1.5	5%	-0.2	2.1	-0.9	-2	0.63
CC1(C)CC(=O)C=C(NNC(=O)c2ccc(N)cc2)C1	6.6	10%	0.6	4.0	2.0	-4	0.68
CCC(=O)NCCSc1c[nH]c2ccccc12	-5.0	6%	0.2	6.0	2.7	-8	0.78
COC(=O)c1c(C)[nH]c(C(=O)C(C)OC(=O)c2ccco2)c1C (stereo not drawn)	0.0	/	-1.6	4.2	-0.4	8	0.71
CC(=O)N1C(C)(C)CC(=NOC(=O)c2ccc(C)cc2)CC1(C)C	-14	/	1.1	5.6	-1.7	0	0.65
Cn1c(=O)c(=O)n(C)c2cc(S(=O)(=O)Nc3ccc4c(c3)OCCO4)ccc21	3.5	4%	0.0	6.2	-6.2	0	0.67
O=C(COC(=O)CCSc1ccccc1)NCc1ccc(F)cc1	6.2	-5%	0.1	1.5	4.3	-2	0.71
CC(C)(C)[C@@H]1CCC(=O)N(CC[C@H](N=[N+]=[N-])c2ccccc2)CC1	-2.1	/	1.0	28*	2.5	-11	/

In another format: two of the compounds above
CNC(=O)CSc1nnc(-c2ccco2)n1-c1cccc(OC)c1
  HNF4A DNA FP: -0.4; Vif TR-FRET: /; A1 inh: 0.4; UCH37 DUB inh: 2.1; LANA-H2B inh: 1.5; Beta2AR agonist: 3; E coli growth: 0.67

O=C(Cc1ccccc1)NCCc1ccc(Cl)cc1Cl
  HNF4A DNA FP: 4.2; Vif TR-FRET: -6%; A1 inh: -0.1; UCH37 DUB inh: 1.7; LANA-H2B inh: 1.5; Beta2AR agonist: 3; E coli growth: 0.69

Additional compounds follow:
SMILES	HNF4A DNA FP	Vif TR-FRET	A1 inh	UCH37 DUB inh	LANA-H2B inh	Beta2AR agonist	E coli growth
CC#CCN1C(=O)N[C@@H](c2ccccc2)C(C(=O)OC)=C1C	-0.5	/	0.5	-0.1	1.1	-3	/
CCc1ccc(NC(=O)c2ccc(F)c(S(=O)(=O)NCC3COc4ccccc4O3)c2)cc1 (stereo not drawn)	1.8	0%	0.1	0.0	/	7	0.69
CCCCNC(=O)c1ccc(SCC(=O)N(CC)CC)c([N+](=O)[O-])c1	-2.1	9%	-0.5	3.6	79*	-16	0.7
CCOC(=O)C1CCCN(C(=O)CSc2nccn2C)C1 (stereo not drawn)	1.1	0%	-0.5	-4.2	1.1	0	0.77
O=c1cc(N2CCN(c3ccccc3F)CC2)[nH]c(=O)n1-c1ccc(Br)cc1	0.3	7%	0.4	5.0	-0.4	9	0.73
CCc1sc(C(=O)Nc2nccs2)cc1C	-3.0	/	-9.4	2.2	-3.6	-1	0.61
O=[N+]([O-])c1ccc(Cc2ccncc2)cc1	0.0	-1%	-0.1	2.5	-0.5	-12	0.7
CC(C)N(C#N)c1nc(N2CCOCC2)nc(N2CCOCC2)n1	3.4	20%	2.4	-1.3	1.9	-5	0.75
CC(C)[C@H](NC(=O)c1cccc(CN(Cc2ccccc2)C(=O)/C=C/c2ccccc2)c1)C(=O)O	1.4	/	0.2	2.7	-3.7	-5	0.68
NC(=S)N1OC[C@@H]2COc3ccc4ccccc4c3[C@@H]21	-2.6	5%	-0.5	6.2	2.1	7	0.7
CCN1CCN(c2ncnc3c2sc2nc(N4CCOCC4)c4c(c23)CCC4)CC1	1.2	/	/	-3.5	/	-1	0.72
CCc1cc(-c2[nH]ncc2-c2nc3ccccc3n2C)c(O)cc1O	0.2	11%	0.1	1.3	2.0	1	0.67
Cc1ccc(NC(=O)CCn2nc(C)cc2C)cc1	2.2	-3%	0.7	1.2	-5.9	2	0.64
CCOc1ccc(C(=O)Nc2cccc(-c3ccc4nncn4n3)c2)cc1	-0.9	-1%	-0.9	-7.3	0.3	7	0.7
O=C(CNC(=S)N(Cc1ccccc1F)C1CCCCC1)NCC1CCCO1 (stereo not drawn)	0.6	5%	0.7	3.6	0.8	-9	0.74
C/C(=N\Nc1nncc2ccccc12)c1cccc(OC(F)F)c1	1.8	/	-10	/	-0.9	-5	/
Cc1ccc2nc(N3CCN(C(=O)CCCC(=O)O)CC3)nc(-c3ccccc3)c2c1	-2.2	-7%	-1.1	-91	1.8	8	0.69
N#CCCN(C(=O)c1cc2c(s1)-c1ccccc1S(=O)(=O)C2)c1ccccc1	-0.3	/	0.3	8.2	-10	1	0.61
O=[N+]([O-])c1ccccc1S(=O)(=O)Nc1cccc(S(=O)(=O)N2CCCC2)c1	-1.1	/	1.9	4.7	0.5	5	0.69
CC(C)OCCCNC(=O)Cn1ccc2cc(S(=O)(=O)N3CCCCCC3)ccc21	0.5	/	0.4	0.5	-2.3	1	0.7
CCc1cccc2c(C(=O)COC(=O)c3cccc(S(=O)(=O)N(C)C4CCCCC4)c3)c[nH]c12	-0.2	4%	-0.6	6.9	-8.6	-8	0.74
O=C(O)c1nn(CCSc2ccccc2F)c(=O)c2ccccc12	1.6	10%	-0.4	4.1	-0.7	-4	0.7
O=C(c1cc(C(=O)N2CCCC2)cc([N+](=O)[O-])c1)N1CCCC1	-3.1	-5%	0.4	-0.2	-5.1	6	0.67
Nn1c(Cc2cccc3ccccc23)nnc1SCc1ccc(Cl)c(Cl)c1	0.7	-19%	0.0	0.0	-12	13	0.68
CC(C)CC(=O)NCCCCc1ccccc1	3.6	2%	-0.1	0.4	-2.6	6	0.68
SMILES	HNF4A DNA FP	Vif TR-FRET	A1 inh	UCH37 DUB inh	LANA-H2B inh	Beta2AR agonist	E coli growth
Cc1cccc(CCNC(=O)CCc2c(C)nc3ncnn3c2C)c1	-0.6	?	0.8	0.4	1.5	2	0.72
Cc1ccc(Cl)cc1N(CC(=O)Nc1cccc(N(C)S(C)(=O)=O)c1)S(C)(=O)=O	-1.0	5%	0.3	4.0	0.1	-9	0.7
Cc1cc(NC(=O)c2ccc3c(c2)OCCO3)ccc1NC(=O)c1cc2ccccc2o1	-0.9	/	-0.1	-10	-2.0	26	0.64
O=C(CN1C(=O)NC2(CCCc3ccccc32)C1=O)N1CCN(c2cccc(C(F)(F)F)c2)CC1 (stereo not drawn)	-0.3	-1%	-0.2	-2.5	-3.2	-3	0.71
Cc1ccc(C)c(CS(=O)(=O)c2cn(CC(=O)N3CCC(C)CC3)c3ccccc23)c1	-2.4	/	1.3	5.7	3.1	4	0.68
O=C(CS(=O)(=O)c1ccccc1)Nc1ccccc1Br	-1.1	-2%	/	/	/	-1	/
COc1ccc(S(=O)(=O)N2CCCC(C(=O)NCCC(C)C)C2)cc1 (stereo not drawn)	-0.4	-2%	0.1	0.4	-5.0	0	0.7
CC(=O)Nc1nonc1C(=O)N1CCC(C)CC1	2.1	?	-0.5	1.6	-6.7	-2	0.71
COC(=O)CSCC(=O)Nc1nnc(-c2ccccc2C)s1	-3.9	1%	-1.2	1.3	-2.5	2	0.68
O=C(Nc1ccc2c(c1)OCO2)c1ccccc1	0.4	/	-6.5	2.5	0.5	2	0.68
CCc1cc(CNC(=O)CC2C(=O)NCCN2Cc2ccc(-c3ccccc3)cc2)on1 (stereo not drawn)	-0.3	-10%	0.9	-4.3	0.1	0	0.68
CCN1CCCC1CNC(=O)c1cc(NC(C)=O)c(N(C)C)cc1OC (stereo not drawn)	2.9	-7%	1.0	4.6	-1.1	2	0.73
O=S(=O)(/C=C/c1ccccc1)n1cnc2ccccc21	-0.1	13%	-0.9	-1.2	-0.1	5	0.73
COc1ccc(C)cc1N(C)C(=O)c1coc(=O)c2ccccc12	-15	6%	-0.3	3.1	-5.8	0	0.71
O=C(NNS(=O)(=O)c1ccccc1)c1sccc1-n1cccc1	0.8	-3%	0.1	1.1	-7.2	-2	0.74
COc1ccc(CCN(C)CC(=O)Nc2c(C)cc(C)cc2C)cc1OC	-2.1	/	2.9	1.6	-8.0	-3	0.69
C=CCSc1nc2ccccc2n1C(=O)/C=C/c1cc(OC)c(OC)c(OC)c1	0.8	1%	1.6	-3.3	-0.7	86*	0.69
CC1(c2ccc(Cl)cc2)NC(=O)N(CC(=O)NCc2cccs2)C1=O (stereo not drawn)	-0.1	/	0.8	-0.3	-0.9	-2	0.7
C=CC[C@H](CC(=O)OC(C)(C)C)C(=O)OC[C@@H]1CCCN1C(=O)[C@H](CC=C)CC(=O)N[C@H](CO)Cc1ccccc1	-0.2	/	0.2	2.9	3.3	2	/
O=S1(=O)NC[C@]23C[C@H](c4ccc(F)cc4)[C@@H](C[C@@H]21)O3	1.6	-1%	-0.7	4.9	1.3	-1	/
CN1C(=O)[C@H]2[C@@H](C3CC3)N3C(=O)CN(CC4CC4)C(=O)[C@@]3(C)[C@H]2C1=O	1.9	/	0.0	2.0	2.7	3	/
COc1cccc(N2CCN(Cc3nc(N)nc(Nc4ccccc4)n3)CC2)c1	4.8	4%	0.1	3.6	1.8	-7	0.63
